2A firefly: FMDV 2A StopGo reporter, firefly signal | HEK cells with a luciferase reporter of 2A StopGo recoding | Potency, µM (series often up to 57.5 µM), without a hit: at the top dose signal change, negative = less light | actives 0.23% (n = 120,000) | AID 1745856; active = well fitted falling curve with a large enough effect; inconclusive = small, poorly fitted or top-dose-only effect; inactive = no such curve, though single readings can be large or run the other way; also: nearly all actives have a fitted effect of over 60% in size; overnight with compound
StopGo RLuc: FMDV 2A StopGo reporter, Renilla signal; HEK cells with a luciferase reporter of 2A StopGo recoding; Potency, µM (series often up to 57.5 µM), inactives show at the highest dose signal change, negative = less light; actives 0.32% (n = 120,000); AID 1745857; active means well fitted falling curve with a large enough effect; inconclusive means small, poorly fitted or top-dose-only effect; inactive means no such curve, though single readings can be large or run the other way; also: nearly all actives have a fitted effect of over 55% in size; overnight with compound
Active calls of the source: *; ? = inconclusive; [ ] = dose if it differs, or a comment. % is scaled to controls: 0 for no effect and ±100 for the full control effect; potency is read from the fitted curve at half-maximal effect.

Structure	2A firefly	StopGo RLuc
Cc1ccc2c(=O)c(C(=O)c3cccc(Cl)c3)cn(CC(=O)Nc3ccccc3C(F)(F)F)c2n1	-10%	-4%
Cc1cn(C)c(CC(=O)N2CCN(c3cccc(C(F)(F)F)c3)CC2)c1C(=O)O	0%	-7%
CC(=O)N1N=C(c2cccc(NS(C)(=O)=O)c2)CC1c1ccc2nccnc2c1 (stereo not given)	6%	-7%
CC(=O)Oc1cc(OC(C)=O)c2c(=O)c(-c3ccc4c(c3)OCCCO4)c(C)oc2c1	0%	24%
O=C(CC1Nc2cccc3cccc(c23)NC1=O)Nc1ccc(F)cc1 (stereo not given)	-19%	-11%
C=CCn1c(NCc2c[nH]c3ccccc23)nc2ccccc21	90%[activator]	-17%
COCCOC(=O)c1ccc(NC(=O)COc2ccc3c(C)cc(=O)oc3c2)cc1	14%	0%
CCN(CC)S(=O)(=O)c1nnc(NC(=O)COc2cccc(C)c2)s1	14%	4%
CC(=O)Nc1c(C)nn(-c2ccccc2)c1N1CCC(C(=O)Nc2ccc(C)cc2Cl)CC1	-20%	-2%
COc1ccc(NS(=O)(=O)c2cc3[nH]c(=O)c(=O)[nH]c3cc2C)cc1	22%	18%
Cc1oc(-c2ccc(Cl)cc2)nc1CN1CCCC(C(=O)NCCc2ccccc2)C1 (stereo not given)	22%	-7%
Cc1ccc(-c2cc(C(F)(F)F)n3nc(C(=O)Nc4ccc(Cl)cc4Cl)cc3n2)cc1	-5%	-11%
CN(C(=O)CSc1nc2ccc(NC(=O)COc3ccccc3Cl)cc2s1)c1ccccc1	-7%	19%
O=C(Nc1ccc2oc(-c3cccnc3)nc2c1)c1ccc(-c2ccccc2OC(F)(F)F)o1	?	?
CCCn1c(=O)[nH]c(=O)c2c1nc(-c1ccc(OCC#N)c(OC)c1)n2CCOC	22%	24%

Next compounds follow:
Structure	2A firefly	StopGo RLuc
O=c1c2sccc2ncn1Cc1coc(-c2ccccc2)n1	52%[activator]	22%
CCOc1ccc(-c2nc(CN3CCN(C(=O)Nc4cccc(OC)c4)CC3)c(C)o2)cc1	133%[activator]	14%
CCc1cc2c(=O)c(Oc3ccccc3)c(C(F)(F)F)oc2cc1OC(=O)c1ccccc1Cl	?	?
Cc1cccc(CS(=O)(=O)c2ncc(Cl)c(C(=O)Nc3nnc(C(C)C)s3)n2)c1	0%	?
COc1ccc(/C=C/c2nc(C#N)c(NCc3ccc(C)cc3)o2)cc1OC	63%[activator]	62%[activator]
CC(C)(C)NC(=O)NC(=O)Cn1nc(C(=O)O)c2ccccc2c1=O	3%	-9%
Cc1cn2c(=O)c(S(=O)(=O)NC(C)c3ccccc3)c(C)nc2s1 (stereo not given)	-28%	-17%
Cc1ccc(C(=O)N(Cc2ccc(N(C)C)cc2)CC2CCCO2)cc1 (stereo not given)	-4%	103%[activator]
Cc1ccc(NC(=O)C2CCCN(C(=O)c3cnn(-c4ccc(F)cc4)c3-n3cccc3)C2)c(Cl)c1 (stereo not given)	-3%	1%
CCn1c(=O)c2sccc2n2c(CCC(=O)Nc3ccc(OC)cc3OC)nnc12	-20%	-12%
Cc1n[nH]c(C)c1/C=C/C(=O)c1cccc(Br)c1	44%[activator]	?
Cc1cccc(/C=C(/C(=O)N(C)Cc2ccccc2)c2cccs2)c1	27%	264%[activator]
CCNc1nc2c(c(=O)[nH]c(=O)n2C)n1Cc1cccc2ccccc12	5%	1%
O=C(c1cn2c3c(cccc3c1=O)CC2)N1CCN(c2cccc(C(F)(F)F)c2)CC1	-1%	0%
COc1ccc(-c2noc(CSc3nnc(-c4ccccc4)n3C)n2)cc1	39%[activator]	3%

(further entries)
Structure	2A firefly	StopGo RLuc
CSc1cccc(NC(=O)c2csc3c2CCCCC3)c1	0%	11%
CNC(=O)Oc1ccc2c(c1)[C@]1(C)CCN(C)[C@@H]1N2C	-12%[11.5 µM]	-5%
Cc1ccc(SCCNC(=S)Nc2ccc(Cl)cc2C)cc1	13%	191%[activator]
C=CCn1cc(C=O)c2ccccc21	13%	-3%
Cc1cc(NC(=O)CN2CCN(c3ncccn3)CC2)on1	3%	-6%
Oc1ccccc1C=NCc1ccccc1	-16%	?
Cn1c(C(=O)NCCc2ccco2)cc2cc(S(=O)(=O)N3CCCCC3)ccc21	-14%	6%
CCOC(=O)c1nc2ccccc2c(-c2ccccc2)c1C	5%	9%
COc1ccccc1CCNC(=O)c1csc2ccccc12	117%[activator]	69%[activator]
CN(CCOc1ccc(Cl)cc1)C(=O)CSc1nnc(-c2ccncc2)n1C	16%	13%
COc1ccc(C2C(=O)N(C3CCCCC3)CC(=O)N2CCc2ccc(C)cc2)cc1OC (stereo not given)	-18%	9%
C/C(=N/Nc1cc(C(F)(F)F)ccc1Cl)c1ccc(Br)cc1	6%	1%
COc1ccc(OC)c(NC(=O)[C@H]2C[C@@H]3CCCN3[C@]23C(=O)Nc2c(Cl)cccc23)c1	0%	-3%
Cc1ccc(-c2nc(CS(=O)(=O)CC3CCCO3)co2)cc1 (stereo not given)	70%[activator]	3%
CCOc1ccccc1NC(=O)CSc1nc2ccccc2nc1N1CCOCC1	91%[activator]	13%

More compounds:
Structure	2A firefly	StopGo RLuc
COc1ccc(OC)c(CNC(=O)CN(c2ccc(C)cc2)S(=O)(=O)N(C)C)c1	-14%	10%
CC(C)(C)NC(=O)Cn1cc(S(=O)(=O)Cc2ccc(F)cc2)c2ccccc21	-10%	-6%
Cc1ccc(C2=NN(CC(=O)NCCc3ccc(Cl)cc3)C(=O)CC2)cc1	21%	2%
Cc1ccc(-c2nc(COc3ccccc3F)co2)cc1	212%[activator]	7%
CC1CCCCC1NC(=S)NC1CC(C)(C)NC(C)(C)C1 (stereo not given)	-18%	2%
Cc1cc(C)c2sc(N3CCN(C(=O)c4ccc(N(C)C)cc4)CC3)nc2c1	4%	-7%
CSc1ccc(NC(=O)C2C(C=C(C)C)C2(C)C)cc1 (stereo not given)	15%	13%
O=C(c1cnn(-c2ccc(F)cc2)c1-n1cccc1)N1CCN(c2ccc(Cl)cc2)CC1	-11%	-9%
Cc1c(-c2ccccc2)nn2c1NC(=O)CC2C(=O)Nc1ccccc1Cl (stereo not given)	-12%	?
CC(Sc1ccc(Br)cc1)c1nc(-c2ccco2)no1 (stereo not given)	47%[activator]	9%
COc1ccccc1NC(=O)CCCc1nnc2n(C)c(=O)c3sccc3n12	-4%	-11%
Cc1cccc(N2CCN(Cc3nnc(-c4ccccc4C)o3)CC2C)c1 (stereo not given)	7%	-10%
CCOc1cc(-c2ccc(O)c(OC)c2)cc(=O)c2c(C)oc(C)c12	10%	24%
Cc1ccc(-n2ncc(C(=O)NCc3cccs3)c2C2CCN(C(=O)OC(C)(C)C)CC2)c(C)c1	-7%	64%[activator]
N#C/C(=C/c1ccccc1)C(=O)OCC(=O)N1CCC(Cc2ccccc2)CC1	12%	-16%

Continued.
Structure	2A firefly	StopGo RLuc
COc1ccc(-c2ccnc3nc(N4CCCCC4)[nH]c(=O)c23)cc1	0%	23%
Cc1ccc2nc(NCCc3ccccc3)c3nncn3c2c1	16%	5%
COCCCn1c(C)cc(C(=O)COc2cccc3c2OC(C)(C)C3)c1C	37%[activator]	43%[activator]
Cc1ccccc1NS(=O)(=O)c1ccc2oc(=O)ccc2c1	5%	109%[activator]
N#CC1=C(N)Oc2nc(SCc3ccccc3)nc(N)c2C1c1ccccc1F (stereo not given)	?	?
CCSc1nnc(SCc2cc(=O)oc3cc(C)ccc23)s1	199%[activator]	92%[activator]
CC(=O)c1ccc(NC(=O)c2nc(-c3ccccc3)n(-c3ccc(C)cc3)n2)cc1	-14%	-3%
O=S(=O)(c1ccccc1)c1nc(-c2cccc(Cl)c2)oc1NCc1ccccc1	-9%	4%
COc1ccc(Cl)cc1NC(=O)COc1cccc2c(=O)n(C)ccc12	-13%	10%
CCCc1nc(N2CCN(CC(=O)N3CCC(C)CC3)CC2)c(C#N)c2c1CCC2	-19%	-2%
CN(Cc1nc2ccccc2n1C(F)F)S(=O)(=O)c1ccc(F)c(F)c1	4%	5%
Cc1c(-c2ccccc2)oc2c(C(=O)OCC(=O)NC3CCC(C)CC3)cccc2c1=O (stereo not given)	-16%	-4%
Cc1nc(-c2ccc(F)cc2)c(CC(=O)N2CCN(S(=O)(=O)c3cccc(F)c3)CC2)s1	5%	3%
CN(CCNC(=O)NC1CCCC(C(F)(F)F)C1)Cc1ccccc1 (stereo not given)	18%	-3%
O=C(Nc1cccc(C(=O)OCc2cc(=O)n3c4c(sc3n2)CCCC4)c1)c1cccc(F)c1	?	-6%

The list continues:
Structure	2A firefly	StopGo RLuc
O=C(Nc1ccccc1C(F)(F)F)c1nc2ccccc2nc1N1CCCC1	0%	8%
Cn1c(=O)c2c(nc(N3CCCCC3)n2CC(=O)C23CC4CC(CC(C4)C2)C3)n(C)c1=O	?	?
O=C(N/N=C/c1cccs1)c1cc(-c2ccccc2)nc2ccccc12	29%	16%
O=C(CSc1nnc(-c2ccncc2)n1C1CC1)c1cc2cc(Cl)ccc2o1	0%	-1%
COc1ccc(Oc2coc3cc(OCc4ccc([N+](=O)[O-])cc4)ccc3c2=O)cc1	6%	5%
CC1=C(C(=O)OCc2ccc3c(c2)OCO3)C(c2ccc(Cl)cc2Cl)CC(=O)N1 (stereo not given)	?	-23%
CCc1ccc(NC(=O)C2CCN(S(=O)(=O)c3ccc4[nH]c5c(c4c3)CCCCC5)CC2)cc1	-18%	-5%
CC(C)Oc1ccc(/C=C(/C#N)C(=O)c2ccccc2F)cc1	15%	3%
Cc1nn(-c2ccccc2)c(C)c1CN(C)C(=O)CNC(=O)c1ccc(C(F)(F)F)cc1	?	?
Cn1c(=O)c2nc(SCC(=O)NCc3ccc(F)cc3)n(C)c2n(C)c1=O	2%	8%
CC1(C(=O)NCc2ccc(Cl)cc2)Cn2c(ccc2-c2ccco2)C(=O)N1CCc1ccco1 (stereo not given)	-14%	0%
c1ccc(-c2nnc(CNC3CCCCCC3)o2)cc1	118%[activator]	5%
COc1cc(/C=C(/C#N)S(=O)(=O)c2ccc(Cl)cc2)cc(OC)c1	-9%	-9%
CCc1ccc(C2c3c(-c4cc(C)ccc4O)n[nH]c3C(=O)N2CCO)cc1 (stereo not given)	-10%	-14%
c1ccc(CNCc2ccc(OCc3ccccc3)cc2)cc1	19%	-2%

Continuation.
Structure	2A firefly	StopGo RLuc
CCCc1nc2ccccc2c(C(=O)OCC(=O)NCC(C)C)c1CC	-17%	39%[activator]
COC(=O)c1ncoc1-c1ccccc1C(=O)N1CCN(c2ccccc2)CC1	-6%	-6%
COCCn1c(SCC(=O)Nc2cc(Cl)ccc2C)nc2ccsc2c1=O	3%	28%
O=C(Cn1c(=O)n(-c2ccc(F)cc2)c(=O)c2sc3ccccc3c21)NC1CCCC1	-11%	-6%
Cc1ccc(NC(=O)N2CC(C)Oc3ccc(Cl)cc32)c(C)c1 (stereo not given)	-5%	-3%
COc1cccc(N2CCN(c3ncc4c(n3)CCN(Cc3ccc(Br)cc3)C4)CC2)c1	7.1µM*	4µM*
CCN(C(=O)CSc1ccc2ccccc2n1)C1CCS(=O)(=O)C1 (stereo not given)	-2%	-8%

Screening data as filed in PubChem.

The list is partial, so the mix of outcomes need not match the whole.
